Screening results: PubChem BioAssay, National Center for Advancing Translational Sciences (NCATS)
hNpr1 antagonist = blocks ANP-stimulated signaling of human Npr1 receptor | P16066 | HEK293 hNpr1 GloSensor cGMP, ANP-stimulated luminescence | Potency, µM (doses to about 46.3 µM), for inactives: at the highest dose activity change, negative = inhibition, actives largely listed as inhibitors | 76,000 compounds, 1.6% hits | AID 1347048; active = well fitted inhibition curve with a large enough effect; inconclusive = small, poorly fitted or top-dose-only effect; inactive = no such curve, though single readings can be large or run the other way;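 note: nearly all actives have a fitted effect of over 60% in size; nearly all hits also lower the signal before the agonist is added; a reference antagonist and vehicle were the controls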
Target sequence (P16066 whole entry, looked up): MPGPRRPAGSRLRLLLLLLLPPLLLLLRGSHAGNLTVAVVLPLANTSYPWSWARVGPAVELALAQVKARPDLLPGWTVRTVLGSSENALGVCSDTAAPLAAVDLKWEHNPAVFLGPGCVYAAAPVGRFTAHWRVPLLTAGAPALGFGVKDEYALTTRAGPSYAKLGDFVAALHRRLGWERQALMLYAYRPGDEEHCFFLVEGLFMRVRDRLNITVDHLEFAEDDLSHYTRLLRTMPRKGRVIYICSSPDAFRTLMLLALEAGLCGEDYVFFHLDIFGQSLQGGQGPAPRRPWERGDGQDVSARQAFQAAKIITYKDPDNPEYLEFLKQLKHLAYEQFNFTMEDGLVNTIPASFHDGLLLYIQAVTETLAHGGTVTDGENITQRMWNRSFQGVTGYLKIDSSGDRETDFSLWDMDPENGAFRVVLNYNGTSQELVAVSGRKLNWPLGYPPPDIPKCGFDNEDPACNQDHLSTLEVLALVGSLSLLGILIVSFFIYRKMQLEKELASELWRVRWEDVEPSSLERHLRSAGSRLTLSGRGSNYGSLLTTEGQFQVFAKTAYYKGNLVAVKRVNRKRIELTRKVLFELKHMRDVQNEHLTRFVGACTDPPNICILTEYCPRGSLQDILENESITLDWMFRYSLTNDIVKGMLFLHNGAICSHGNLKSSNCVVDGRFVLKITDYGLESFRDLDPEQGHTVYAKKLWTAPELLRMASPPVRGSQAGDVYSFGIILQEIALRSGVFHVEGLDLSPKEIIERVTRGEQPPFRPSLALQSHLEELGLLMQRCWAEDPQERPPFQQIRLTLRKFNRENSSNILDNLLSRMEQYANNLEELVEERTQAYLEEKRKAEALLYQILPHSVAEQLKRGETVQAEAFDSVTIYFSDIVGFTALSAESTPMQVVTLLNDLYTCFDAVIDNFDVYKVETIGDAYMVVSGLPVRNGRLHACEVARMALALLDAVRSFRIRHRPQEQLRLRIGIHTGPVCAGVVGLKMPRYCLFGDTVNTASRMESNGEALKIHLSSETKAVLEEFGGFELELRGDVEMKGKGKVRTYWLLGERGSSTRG
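Compound pre-incubated 30 min at room temperature on GloSensor-loaded HEK293 cells stably carrying hNpr1 and the pGS-40F cGMP biosensor. Stimulation uses hNppA at 0.1 nM final; luminescence is taken at baseline and 20 min post-agonist.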
Starred values were filed as active, the others as inactive; ? = inconclusive; [ ] = dose if it differs, or a comment. % is set by controls: 0 for no effect and ±100 for the full control effect; potency is the fitted concentration of half-maximal effect.

hNpr1 antagonist	mol
-2.8%	CN(Cc1n[nH]c2c1CCCCC2)C(=O)c1cn(CC2CCCCC2)nn1
11.2%[70.6 µM]	COCC(=O)N1CCC(O)(c2csc(CN3CCN(c4ccccn4)CC3)n2)CC1
-13.8%	CC(C)c1nnc(C2CN(C(=O)c3ccc(F)cc3F)CC23CCOCC3)o1 (stereo unspecified)
-4.5%	CC(C)n1cc2cc(C(=O)N3CCN(Cc4cccc(F)c4)CC3)sc2c1
0.0%	CCc1nc2c(c(-c3ccc(Cl)cc3)n1)CCN(Cc1cccc3ccccc13)CC2
0.631µM*	CC1CCN(c2ccc(-c3cccc(N)c3)nn2)CC1
-22.2%	COCC1CCN(S(=O)(=O)N2CCCCC2CCc2ccccc2)CC1 (stereo unspecified)
1.3%	CN(C)c1cc(N2CCCC(NC(=O)c3cccs3)C2)ncn1 (stereo unspecified)
1.7%[70.6 µM]	c1ccc(-c2cnc3n2C[C@H](CNCc2nccs2)OC3)cc1
-1.0%	O=C(CN1C(=O)C(c2ccccc2)=NC12CCCCC2)NC1CCCC1
2.9%	Cc1c(C(=O)N2CCC3(CCCN(C)C3=O)C2)n(C)c2ccc(F)cc12 (stereo unspecified)
5.2%	c1ccc(-c2cccc(-n3ccnc3-c3cc4n(n3)CCCNC4)c2)nc1

Other records:
hNpr1 antagonist	mol
10.5%	CCOC(=O)Cn1nc2n(c1=O)CCN(Cc1cccc(Cl)c1)C2=O
5.3%	COC(=O)C1=CN(CC(=O)NC(C)c2ccccc2)S(=O)(=O)N=C1C (stereo unspecified)
-14.0%	Cc1noc(-c2cn(C3CCCN(C(=O)c4ccc(OC(F)(F)F)cc4)C3)nn2)n1 (stereo unspecified)
2.2%[70.6 µM]	O=C(c1cccnc1)N1CC(CNc2ccccc2)C2(C1)CN(c1ccccc1)C2 (stereo unspecified)
-0.5%	COCCN1CCC(CN2CCN(c3ncc(C)c(N)n3)CC2)CC1
1.9%	COCCN1C(=O)c2ccccc2C(C(=O)NCc2ccc(F)cc2)C12CCCCC2 (stereo unspecified)
3.4%[70.6 µM]	Cc1noc2c(NCCCn3ccnc3)cc(-c3ccccc3)nc12
-0.3%	COc1cc2c(cc1OC)C(CNC(=O)c1ccccc1)N(C(=O)Nc1cccc(F)c1)CC2 (stereo unspecified)
-0.7%	CCc1ccc(NC(=O)N2CC(C(=O)N(C)C)C3(CCOCC3)C2)cc1 (stereo unspecified)
-3.4%	CC(C)CCNC(=O)CCC1CCN(C(=O)c2ccccc2F)CC1
13.8%	COc1cccc(N2C(=O)NC(=NC3CCCCC3)C23CCN([S+](=O)([O-])c2cccc(OC)c2)C3)c1 (stereo unspecified)
17.4%	O=C(CC1CCOCC1)Nc1ccc(N2CCOCC2)cc1

(more compounds)
hNpr1 antagonist	mol
-8.2%	Cc1ccccc1Cn1cc(-c2ccncc2)cc1C(=O)N1CCCC(C)C1 (stereo unspecified)
?	Cc1nn(-c2ccc(F)cc2)c(C)c1[C@@H]1C=C[C@@H](NCc2ccc(C(C)C)cc2)C1
1.1%	C=CCN1CCN(C(=O)C2CCCN(S(C)(=O)=O)CCC(=O)NCC2)CC1 (stereo unspecified)
3.8%	O=C(C1CCCCC1)N1C[C@@H](CO)[C@H](c2nc(-c3ccncc3)no2)C1
10µM*	Cc1ccc(C(=O)N2CCCC(n3cc(-c4nc(-c5ccccc5)no4)nn3)C2)s1 (stereo unspecified)
-18.7%	CCOc1ccc(CN2C[C@@H]3C(=O)N(CCN4CCc5ccccc5C4)C(=O)[C@@H]3C2)cc1
7.8%	O=C1Nc2ccc(-c3ccc(Cl)cc3)cc2C(=O)N2CCN(C(=O)NC3CCCCC3)C[C@H]12
2.4%	COCCNC(=O)[C@H]1C[C@H](Oc2ccccc2)CN1Cc1cccnc1
8.5%	Cc1nc([C@@H]2CN(S(=O)(=O)C(C)C)C[C@H]2C(N)=O)n[nH]1
3.9%	COc1ccc(N2CCN(C(=O)COc3ccc(NC(C)=O)cn3)CC2)cc1
2.6%[70.6 µM]	O=C(O)C[C@@H]1CCN(C(=O)C(=O)O)C[C@@H]1CC1=NCCc2cc(F)ccc21
11.2µM*	O=C(NCCc1cccnc1)c1cc2n(n1)CC(c1ccc(Br)cc1)OC2 (stereo unspecified)

Continued.
hNpr1 antagonist	mol
1.6%	Cc1ccc(C(=O)N2CCC(CC(=O)NCc3ccccc3)C2)cc1C (stereo unspecified)
10.8%	COCC1CN(C(C)=O)CC12CCN(C(=O)Cc1cccc(F)c1)CC2 (stereo unspecified)
-1.2%	O=C(Nc1ccnn1C1CCN(CCO)CC1)c1ccccc1Cl
-19.3%	Cc1ccc(-n2c(C3CCN(C(=O)c4ccc(C(C)(C)C)cc4)CC3)n[nH]c2=O)cc1
?	COc1ccc(OCc2nc(C3CN(C(=O)Cc4c[nH]c5ccccc45)C3)no2)cc1
-15.6%	COc1ccc(S(=O)(=O)N2CCC(n3cnnc3C3CC3)CC2)cc1
2.8%	Cc1ccc(C2Cn3nnc(C(=O)N4CCC(C(=O)NC(C)c5ccccc5)CC4)c3CO2)cc1 (stereo unspecified)
7.8%	CC(C)C(=O)Nc1ccc(C2(C(=O)N3CCCCC3)CCCCC2)cc1
1.9%	COc1ccc(C2(C(=O)N3CC[C@H](CO)[C@H](NC(=O)C4CC4)C3)CC2)cc1
2.3%	CN1C(=O)C(CC(=O)NCC2CCN(Cc3ccccc3F)CC2)=C2CCCCC21 (stereo unspecified)
-20.5%	COc1cccc(S(=O)(=O)N2C[C@@H](F)C[C@H]2C(=O)N2CCc3ccccc3C2)c1
-5.6%	CCOc1ccccc1C(=O)N1CCC2(CC1)CN(c1ncccn1)CC2CO (stereo unspecified)

(listing goes on)
hNpr1 antagonist	mol
4.7%	COCc1noc([C@@H]2CN(C(=O)c3cccc(C)c3)C[C@H]2COC)n1
-3.1%	Oc1cc(-c2cccc(Cl)c2)cc2c1OCCN(Cc1noc(C3CC3)n1)C2
2.1%	CC(=O)N1CCC([C@@H]2CN(C(=O)c3nccc4ccccc34)C[C@H]2CO)CC1
7.9%[70.6 µM]	Cc1ccc2nc(CO[C@H]3CN(Cc4ncc[nH]4)C[C@H]3F)[nH]c2c1
-0.9%	COCC1CN(S(=O)(=O)c2ccc3c(c2)CCCC3)CC12CCNCC2 (stereo unspecified)
-1.4%[70.6 µM]	C=CCNC(=O)N[C@H]1[C@H](O)[C@@H](Sc2ccccc2)[C@@H]2OC[C@H]1O2
4.4%	COCC(=O)N1CCC(Oc2ncccc2C(=O)N(C)C)CC1
-4.5%	COc1cccc(C(=O)NC2CCN(c3cc(-c4ccccc4)[nH]n3)C2)c1 (stereo unspecified)
1.1%	O=C(c1ccncc1)N1CC[C@](O)(c2ccccc2)[C@H](N2CCCC2)C1
-8.5%	CC1CCN(CC2CCCCCN2)CC1 (stereo unspecified)
?	CN1C[C@@H](NC(=O)c2ccc(C#N)cc2)C[C@H]1c1nc(-c2ccc(OC(F)(F)F)cc2)no1
0.1%[70.6 µM]	CC[C@H]1CN(C(=O)NC2CCCCC2)CC[C@H]1CC(=O)Nc1ccccc1

Overlap with the part before: 3 compounds, then new ones.
hNpr1 antagonist	mol
-8.5%	CC1CCN(CC2CCCCCN2)CC1 (stereo unspecified)
?	CN1C[C@@H](NC(=O)c2ccc(C#N)cc2)C[C@H]1c1nc(-c2ccc(OC(F)(F)F)cc2)no1
0.1%[70.6 µM]	CC[C@H]1CN(C(=O)NC2CCCCC2)CC[C@H]1CC(=O)Nc1ccccc1
3.5%[70.6 µM]	Cc1ccc2c(c1)N1C(=O)OC[C@@H]1CCN(C1CCOCC1)C2
5.0%	COC[C@H]1CCCN1[C@@H]1[C@H](O)[C@H](CO)O[C@@H]1CNS(=O)(=O)c1cccs1
6.5%	CCn1cc(S(=O)(=O)NCCc2ncc(C)n2C2CC2)cn1
4.1%	COC[C@@H]1[C@H](C(=O)NCc2cc(F)cc(F)c2)CCC(=O)N1C
2.4%	CN1CCN([C@H]2CCN(Cc3cccs3)C[C@H]2CCC(=O)O)CC1
-2.3%	OCC1(CN2CCCC2)CCN(Cc2ccc(OC(F)(F)F)cc2)CC1
-1.4%	CCOCC(=O)N1CCC(c2nc(-c3cccnn3)no2)CC1
4.3%	Cc1cccc2nc(CNC(=O)c3cc(COc4ccc(F)cc4F)on3)cn12
-3.0%[70.6 µM]	COc1ccccc1CC(=O)N1CC[C@@H]2NC(=O)[C@H]3C[C@H](NC(=O)C4CC4)CN3C(=O)[C@H]21
2.9%	CCN1CCN(CC(O)COc2cccc(CNCCc3cccc(C)n3)c2)CC1 (stereo unspecified)
7.1%	CC(C)(N)C(=O)NC1CCCN(C2Cc3ccccc3C2)C1 (stereo unspecified)
0.0%	COc1cccc([S+](=O)([O-])N2CCCC3(COc4ccccc4C(=O)N3)C2)c1 (stereo unspecified)

Seven compounds out of the list, ordered by molecular weight, rising:
hNpr1 antagonist	mol
7.1%	CC(C)(N)C(=O)NC1CCCN(C2Cc3ccccc3C2)C1 (stereo unspecified)
3.5%[70.6 µM]	Cc1ccc2c(c1)N1C(=O)OC[C@@H]1CCN(C1CCOCC1)C2
-1.4%	CCOCC(=O)N1CCC(c2nc(-c3cccnn3)no2)CC1
4.1%	COC[C@@H]1[C@H](C(=O)NCc2cc(F)cc(F)c2)CCC(=O)N1C
4.3%	Cc1cccc2nc(CNC(=O)c3cc(COc4ccc(F)cc4F)on3)cn12
0.0%	COc1cccc([S+](=O)([O-])N2CCCC3(COc4ccccc4C(=O)N3)C2)c1 (stereo unspecified)
-3.0%[70.6 µM]	COc1ccccc1CC(=O)N1CC[C@@H]2NC(=O)[C@H]3C[C@H](NC(=O)C4CC4)CN3C(=O)[C@H]21

(further entries)
hNpr1 antagonist	mol
-17.5%	CC(C)c1ccc(OCC(=O)c2ccc3c(c2)N(CCCC(=O)N2CCOCC2)C(=O)CO3)cc1
2.4%[70.6 µM]	N#Cc1cccc(CN2Cc3[nH]cnc3C[C@H]2c2nc(-c3cnccn3)no2)c1
-0.4%	CCC1(N2CCN(C)CC2)CCN(C(=O)CCC2CCCC2)C1 (stereo unspecified)
4.6%	CN1CC2(CCN(C(=O)c3cc4ccccc4[nH]3)CC2)CC1C(=O)N1CCOCC1 (stereo unspecified)
3.9%[70.6 µM]	CNC(=O)C1(N2CCC[C@H]2C(=O)N2CCCC2)COC1
4.0%	COc1ccc(N2Cc3c(ncnc3N3CCC(N4CCOCC4)CC3)N(C)CC2=O)cc1
-1.5%	O=c1[nH]c(N2CCOCC2)nc2c1CCN(Cc1ccc(Cl)cc1F)CC2
-27.5%	CCOc1cccc(CNC(=O)CCC2CCN(S(=O)(=O)c3ccccc3)CC2)c1
10µM*	O=C(c1ccc(Cl)cc1Cl)N1CCN(c2cc(-c3cccs3)[nH]n2)CC1
-19.3%	COc1cccc(-c2nc3ccc(-c4ccc5c(c4)OCO5)cc3o2)c1OC
-6.8%	CNC(=O)[C@@H]1CN(C(=O)c2ccccc2C(F)(F)F)C[C@H]1CO
6.0%	CCN(CC)C(=O)c1c(C)sc2ccn(Cc3ccc(F)cc3)c(=O)c12

New compounds follow:
hNpr1 antagonist	mol
-11.7%	Cc1cccc(NC(=O)Cn2cccc2-c2nc(-c3ccc(F)cc3)no2)c1
2.2%	COc1ccc(C(=O)N[C@@H]2c3ccccc3C3(CCNCC3)[C@H]2OC)c(C)c1
1.0%[70.6 µM]	Cc1csc(NC(=O)[C@@H]2CCC[C@@H](N(C)C)CN(C)C(=O)C2)n1
12.6µM*	COc1cccc(-c2noc(CC3CCN(C(=O)c4ccccc4C)CC3)n2)c1
-8.3%	O=C(c1ccc(F)cc1)N1C[C@@H]2C[C@H](C1)c1ccc(NS(=O)(=O)c3cccc(F)c3)c(=O)n1C2
-1.0%	O=C(CCc1n[nH]c2c1CCCC2)N1CC[C@H]2CNC[C@H]21
-1.5%	CNc1ncc(CN(C)C(=O)c2cc(S(N)(=O)=O)ccc2F)cn1
0.4%	COCCCNC(=O)CCc1ccc2c(c1)CN(C(=O)NC(C)C)CCO2
0.0%[70.6 µM]	CNC(=O)c1cnn2ncccc12
?	CCn1ncc(NC(=O)Cn2ncc3cc(-c4ccc(C)cc4F)ccc32)n1
2.9%	COCC1CN(C)CC12CCN(C(=O)c1ccc(OC)c(F)c1)CC2 (stereo unspecified)
-0.3%	O=C(O)CO[C@@H]1COCC[C@H]1NC(=O)c1cc2c(s1)CCCCC2

Next section:
hNpr1 antagonist	mol
3.0%	O=C(c1nnc(CNc2ccc(OC(F)(F)F)cc2)n1-c1ccccc1)N1CCC[C@@H]1CN1CCCC1
0.5%	COCCNC(=O)[C@@H]1C[C@H](Oc2cccnc2)CN1S(=O)(=O)c1ccc2c(c1)CCC2
4.4%	O=C(CN1CCCc2nc(-c3ccncc3)ncc2C1=O)NCCCN1CCOCC1
-6.3%	Cc1ccc(NC(=O)C2CCN(C(=O)c3nnn4c3COC(c3ccc(C)cc3)C4)CC2)cc1 (stereo unspecified)
6.2%	COc1ccccc1CCC(=O)N1CCc2nn(C)c(=O)n2CC1
-11.4%	O=C(C(c1cccnc1)N1CCOCC1)N(C/C=C/c1ccccc1)CCO (stereo unspecified)
5.0%	O=C1NCCCC[C@@H]1NCc1ccccc1OCCCCN1CCOCC1
3.55µM*	Cc1ccccc1-c1cnc2[nH]cc(CC(=O)N3CCCC3)c2c1
-4.1%[70.6 µM]	CC(C)CCNC(=O)c1cnc2n1CCN(Cc1cccs1)CC2
0.3%	Cc1cnc(C(=O)N2CCCCCC2c2nnc(-c3ccccc3)o2)cn1 (stereo unspecified)

Some of the compounds tested; count on the stated rates, not on these rows.
